Insulin prom inh: TRM-6 insulin promoter activity inhibition | TRM-6 cells (human fetal islet line), insulin promoter-eGFP reporter, imaging; reporter expression induced with tamoxifen | inhibition, % at 2 µM | actives 0.9% (n = 130,000);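 active = inhibition above the mean plus 3 SD, with well images judged a real hit on visual review, cut at about 60% in these data, passing the limit was not always enough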
PKD1 kinase inh: blocks activity of human protein kinase D1 | AID 797 | actives 0.056% (n = 200,000) | PKD1 kinase fluorescence polarization assay | Q15139 | inhibition, %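 (about 10 µM by stock and volumes)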;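 active = inhibition of 50% or more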;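 note: controls were vehicle for no effect and a reference inhibitor for full effect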
GALR2 ag: GALR2 (human) receptor agonism; O43603; GALR2-expressing cells, agonist activation read-out; activation, %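 (tested at 5 µM)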; actives 0.48% (n = 140,000); AID 803;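 active = above mean plus 3 SD of all compounds, about 5% in these data, not always enough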;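 note: 0% = vehicle buffer wells and 100% = reference agonist at full effect; tested in CHO reporter cells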
Target sequence (O43603 whole entry, looked up): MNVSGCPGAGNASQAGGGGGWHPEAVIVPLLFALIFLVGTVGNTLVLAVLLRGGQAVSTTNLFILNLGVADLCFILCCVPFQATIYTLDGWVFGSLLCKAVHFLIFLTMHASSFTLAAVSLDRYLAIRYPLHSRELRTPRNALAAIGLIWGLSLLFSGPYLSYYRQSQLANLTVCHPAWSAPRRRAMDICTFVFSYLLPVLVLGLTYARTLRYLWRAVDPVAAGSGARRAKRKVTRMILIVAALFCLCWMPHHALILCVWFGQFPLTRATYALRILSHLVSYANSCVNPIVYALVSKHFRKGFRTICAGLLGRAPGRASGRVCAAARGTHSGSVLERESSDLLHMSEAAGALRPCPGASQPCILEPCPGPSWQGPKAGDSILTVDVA
RGS16-Gao: RGS16-Galphao interaction regulator (human); AID 1441; binding response (% of control), % at 10 µM; actives 0.38% (n = 220,000); bead-based flow cytometry RGS16-Galphao binding, fluorescence; actives lie on both sides;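 active = below 25% or above 175%, edge rows of some plates excepted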;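 note: Galphao activated by GDP with aluminum fluoride before binding; 100% = wells without compound and 0% = beads without RGS; some results beyond the cut were filed as inactive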
Target sequence (O15492 whole entry, looked up): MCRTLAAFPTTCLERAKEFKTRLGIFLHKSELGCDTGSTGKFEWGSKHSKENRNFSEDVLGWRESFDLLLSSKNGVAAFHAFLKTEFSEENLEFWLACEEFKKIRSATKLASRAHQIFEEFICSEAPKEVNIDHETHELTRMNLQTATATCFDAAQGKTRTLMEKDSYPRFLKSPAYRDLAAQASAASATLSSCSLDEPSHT
Target sequence (P09471 whole entry, looked up): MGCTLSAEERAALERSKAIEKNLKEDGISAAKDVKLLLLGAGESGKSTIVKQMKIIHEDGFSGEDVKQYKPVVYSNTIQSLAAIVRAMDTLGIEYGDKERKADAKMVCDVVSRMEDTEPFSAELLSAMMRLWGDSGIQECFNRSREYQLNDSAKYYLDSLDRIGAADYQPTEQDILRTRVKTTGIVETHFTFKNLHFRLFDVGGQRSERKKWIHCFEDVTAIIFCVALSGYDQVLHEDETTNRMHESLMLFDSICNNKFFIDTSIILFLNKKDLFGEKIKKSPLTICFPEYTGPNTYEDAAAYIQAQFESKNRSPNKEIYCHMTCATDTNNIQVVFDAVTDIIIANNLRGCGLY
HSV replic up: increases HSV replication in cells; HSV replication augmentation in cells, fold increase; maximum fold increase; actives 0.005% (n = 220,000);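 active = peak rise of 1.5-fold or more in the series; tested in PC3 cells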;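 note: first round at 10 µM; read as green reporter fluorescence; hits show the peak of a series up to 25 µM; 1 = signal of infected wells without compound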
Insulin prom inh cell count: also measured in Insulin prom inh; calls as there; normalized cell count, %; measured here: cell count, toxicity; reference of the scale not given here;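 cells exposed to compound for 48 h; stained nuclei by imaging scaled within each plate; lower means fewer cells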
HSV replic up primary fold: recorded beside HSV replic up, whose call it bears; fold increase; compound at 10 µM; measured here: primary screen fold increase 10 uM; tested in PC3 cells;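 GFP signal in the first replicate; 1 = infected wells without compound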
* marks the source's active call; other numbers are inactive results; i = inactive; nt = not tested or not shown.

SMILES	Insulin prom inh	Insulin prom inh cell count	PKD1 kinase inh	GALR2 ag	RGS16-Gao	HSV replic up	HSV replic up primary fold
CC(C)Oc1ccc(/C=C/C(=O)NCC2COc3ccccc3O2)cc1 (configuration not stated)	nt	nt	nt	nt	100	i	1.1
O=C(COC(=O)c1ccccc1Br)Nc1ccccc1F	nt	nt	-8	nt	96	i	0.87
CCOC(=O)N1CCN(C(=O)CCSc2ccc(C)cc2)CC1	28	43	-12	1.2	97	i	1
Cc1ccc(C(=O)NCc2ccccn2)o1	20	144	19	-1.6	103	i	0.97
Cc1nc2ccccc2c(=O)n1NC(=O)c1cncc(Br)c1	nt	nt	0	nt	111	i	1
O=C(CN1C(=O)CCC1=O)Nc1ccc(Cc2ccc(NC(=O)CN3C(=O)CCC3=O)cc2)cc1	nt	nt	1	nt	104	i	1
O=C(O)c1cnc(-c2ccccc2)nc1C(F)(F)F	-50	122	-1	nt	99	i	0.88
Cn1c(SCc2ccccn2)nnc1-c1cnccn1	-16	109	0	-0.8	79	i	1.1
O=C(CCNS(=O)(=O)c1ccc(Cl)cc1)NCc1cccnc1	nt	nt	5	-1.6	96	i	1.1
CCOc1ccc(CC2S/C(=N/N=C/c3ccco3)NC2=O)cc1 (configuration not stated)	nt	nt	6	nt	104	i	0.91
CCN(CC)S(=O)(=O)c1ccc(S(=O)(=O)N2CCN(C(=O)c3ccco3)CC2)cc1	56	96	-3	-3.0	104	i	1
CC(C(=O)NN=C(c1ccccc1)c1ccccc1)N1CCOCC1 (configuration not stated)	nt	nt	-3	nt	99	i	0.98
Cc1cccc(C)c1NC(=O)CSc1nnc(-c2cccnc2)o1	-33	118	-4	nt	104	i	1
CC1CCCCN1C(=O)CSc1nc(-c2ccccc2)cc(=O)[nH]1 (configuration not stated)	17	73	-7	-2.8	84	i	1.1
CC1(C)CC(NC(=O)C23CCC(C)(C2Br)C3(C)C)CC(C)(C)N1 (configuration not stated)	nt	nt	nt	nt	107	i	0.88
Cc1ccc(NC(=S)NCCc2ccc(S(N)(=O)=O)cc2)cc1C	nt	nt	-12	-0.8	105	i	1
CCC(=O)N1CCN(c2ccc(NC(=S)NC(=O)c3cccc([N+](=O)[O-])c3)cc2)CC1	nt	nt	-4	-2.2	nt	i	0.94
CCOc1ccc(-n2c(C)cc(/C=N/N(C)C)c2C)cc1	nt	nt	-3	nt	102	i	1
O=C(NNC(=O)c1csc(-c2cnccc2C(F)(F)F)n1)c1ccc(C(F)(F)F)cc1	nt	nt	nt	nt	89	i	1
N#C/C(=C(/O)CCl)c1nc2ccccc2[nH]1	-44	93	-2	nt	91	i	0.88
CCN(CC)CCCN1C(=O)C(O)=C(C(=O)c2ccco2)C1c1ccc(OC(C)C)cc1 (configuration not stated)	-87	118	-1	-2.1	106	i	1
O=C(Cc1ccc2c(c1)OCCO2)N1CCN(S(=O)(=O)c2cccs2)CC1	30	105	-8	nt	107	i	0.93
Cc1ccc(NCc2ccccc2O)cc1	-75	55	2	-0.5	98	i	0.82
Cc1ccc(C(=O)NCC(=O)N/N=C/c2cccs2)cc1[N+](=O)[O-]	0	134	-1	nt	112	i	0.97
O=S(=O)(c1ccc(Oc2ccc(Br)cc2)cc1)N1CCOCC1	-112	90	-11	-1.8	106	i	0.9
NS(=O)(=O)c1ccc(NC(=O)COC(=O)C2(c3ccc(F)cc3)CCCC2)cc1	-19	55	-12	-0.8	105	i	0.79
O=C(Nc1cccc(-c2ccccc2)c1)N1CCN(C(=O)Nc2cccc(-c3ccccc3)c2)CC1	nt	nt	nt	nt	112	i	0.72
O=c1[nH]c2ccc(N=Cc3c(O)ccc4cc(Br)ccc34)cc2[nH]1	6	183	12	-0.9	100	i	1.1
CCOc1ccc(NC(=O)Nc2cccs2)cc1	nt	nt	-5	-3.1	107	i	1.2
Cc1ccc(-c2cn3cccnc3n2)cc1NC(=O)c1c(-c2ccccc2Cl)noc1C	9	50	-12	-0.2	103	nt	nt
CCCCOC(=O)C1C2C=C[C@]3(CN(CCCOC)C(=O)[C@H]13)O2 (some centres not stated)	-86	59	-9	-1.8	88	i	0.97
CCOC(=O)C1CCN(CC(O)COc2ccc(C(C)(C)C)cc2)CC1 (configuration not stated)	nt	nt	-2	0.3	100	i	0.97
Cn1c(SCC(=O)N2CCCC2)nnc1-c1ccc(S(=O)(=O)N2CCCC2)cc1	31	99	1	-2.1	81	i	1
CC(C)C(=O)N1CCN(c2cc(N3CCN(C)CC3)c(F)cc2[N+](=O)[O-])CC1	-7	88	0	nt	100	i	1
NC(=S)N/N=C/c1ccc(C(F)(F)F)cc1	0	80	-6	0.1	112	i	0.76
Cc1ccc(CS(=O)(=O)CCC(=O)O)cc1	nt	nt	-3	nt	115	i	1.2
CCCNC(=O)C(=O)c1cccn1-c1ccsc1C(=O)OC	-5	99	-5	-1.1	121	i	1
O=C(CSc1ccsc1[N+](=O)[O-])NCCc1ccccc1	12	98	-3	-1.4	99	i	1.1
O=C(CSc1nnc(-c2ccc(Cl)s2)o1)N1CCOCC1	-62	145	-1	-0.9	nt	nt	nt
O=C(NCc1ccc(Cl)cc1Cl)C1CCN(S(=O)(=O)c2ccc3c(c2)OCCCO3)CC1	nt	nt	-8	-0.6	135	i	0.9
COC(=O)c1cc(Br)c(=O)n(-c2ccc(OC)cc2)c1	14	160	6	-0.4	112	i	0.97
Cc1nn(-c2cc(Cl)ccc2N)c(=O)c2ccccc12	20	131	5	-0.2	102	i	0.89
CCOC(=O)CN1C(=O)SC(CC(=O)Nc2nccs2)C1=O (configuration not stated)	-35	97	-5	-0.1	101	i	0.95
CCn1c(SCCN2CCCCC2)nnc1-c1ccc(S(=O)(=O)N2CCOCC2)cc1	-73	99	1	-2.5	104	i	0.96
COc1ccc(CCN2CN(S(=O)(=O)c3ccccc3)c3nc4ccccc4nc32)cc1	nt	nt	-7	1.3	107	i	0.93
COc1ccc(NC(=O)/C=C/c2ccco2)cn1	nt	nt	-6	nt	99	i	1.1
Cc1cc(C)c2nc(NNC(=O)c3ccc(S(=O)(=O)N4CC(C)CC(C)C4)cc3)sc2c1 (configuration not stated)	41	78	-3	44*	96	i	0.71
COc1ccc([N+](=O)[O-])cc1NC(=O)Cn1ccsc1=N	nt	nt	-7	-0.5	162	i	0.98
CN(C)c1nc(Oc2ccc(C(=O)OCC(=O)Nc3ccccc3)cc2)nc(N(C)C)n1	8	92	1	-0.7	100	i	0.89
C=CCn1c(COc2ccccc2)nnc1SCC(=O)N/N=C/c1ccc(C)cc1	-26	139	-11	-1.1	102	i	1
COc1ccc(-c2cc(=O)n(CCC#N)[nH]2)cc1	-10	89	-1	-0.5	101	i	0.97
CC(/C=N/N1CCN(c2ccc(C)cc2)CC1)=C\c1ccccc1	-164	131	-8	0.1	105	i	1
Cc1ccc(/C=C/C(=O)Nc2cc(S(N)(=O)=O)ccc2O)cc1	nt	nt	-5	nt	84	i	0.89
Cc1cc(CNC(=O)Cc2ccc(F)cc2)c2ccccc2n1	6	75	-3	nt	98	i	0.89
Cn1c(SCC(=O)N/N=C/c2ccco2)nc2ccccc21	nt	nt	-7	nt	94	i	1.1
Cc1n[nH]c(=O)nc1NC(C)c1ccccc1 (configuration not stated)	33	55	-10	-1.6	106	i	0.97
Cc1ccccc1NS(=O)(=O)c1ccc(NC(=O)c2nc3ncccn3n2)cc1	-1	102	-2	-4.6	100	i	1
COc1ccc(C(=O)CCNc2ccc(F)cc2)cc1	nt	nt	nt	nt	98	i	1.1
CCN(CC)C(=O)C1CCN(CC2CC=CCC2)CC1 (configuration not stated)	7	85	6	-4.5	106	i	0.95
CC1CCCCN1Cc1c(C#N)c2ccccc2n1C (configuration not stated)	-34	60	-6	-0.6	101	i	0.97
(listing goes on)
SMILES	Insulin prom inh	Insulin prom inh cell count	PKD1 kinase inh	GALR2 ag	RGS16-Gao	HSV replic up	HSV replic up primary fold
CCOc1ccc(OCC)c(NC(=O)CN2CCN(c3cc(C)ccc3C)CC2)c1	0	62	0	0.2	106	i	1.1
O=C(NC1CCCc2ccccc21)c1ccc(S(=O)(=O)N2CCOCC2)cc1 (configuration not stated)	17	58	-3	nt	110	i	0.95
O=C(NC(Cc1ccccc1)C(=O)O)/C(=C\c1ccco1)NC(=O)c1ccco1 (configuration not stated)	38	178	-2	nt	103	i	1.1
O=C(c1csc2c1CCCC2)N1CCN(c2ncccn2)CC1	-19	75	-1	-1.2	111	i	1.1
COc1nc(OC)nc(N2CCC(C(=O)Nc3cccc4c3CCCC4)CC2)n1	-6	100	-2	-0.5	101	i	0.92
O=C(NC(=S)Nc1c(Cl)ccc2nsnc12)c1ccco1	23	83	-4	0.6	98	i	1.1
O=C(O)/C=C/C(=O)Nc1cccc2cccnc12	nt	nt	nt	nt	99	i	0.84
Cc1c(C(=O)c2ccccc2)c2ccccn2c1CCC#N	nt	nt	nt	nt	103	i	0.97
CC(C)Cn1c(-c2csc3c2CCCC3)n[nH]c1=S	-38	85	-14	-2.8	100	nt	nt
COc1cccc(C2C(C(=O)c3ccco3)=C(O)C(=O)N2CCN(C)C)c1OC (configuration not stated)	14	122	-12	-3.1	99	i	0.96
CC(=O)Nc1ccccc1NC(=O)c1cc(C)ccc1C	nt	nt	2	nt	99	i	0.84
CCN(CC)CCN1C(=O)c2ccccc2NC1c1ccccc1F (configuration not stated)	-112	111	-1	-0.5	23*	i	0.96
CC(C)NC(=O)CCS(=O)(=O)c1ccc(Br)s1	25	89	4	-2.1	101	i	0.99
CCOC(=O)c1cccc(-n2c(C)nc3ccccc3c2=O)c1	nt	nt	-9	-2.3	73	i	0.79
COC(=O)[C@@H]1CCCN1Cc1nc(Cc2ccc(OC)c(OC)c2)no1	nt	nt	-4	nt	102	i	1
CCn1c(O)c(N=NC(=O)Cn2ccc(C(F)(F)F)n2)c2ccccc21	10	67	5	-1.4	117	i	1.1
COC(C(=O)Nc1ccc(Br)cc1F)c1ccccc1 (configuration not stated)	nt	nt	-1	nt	91	i	1.1
Cc1cc(C(F)(F)F)n(-c2nc(C(=O)Nc3cccnc3)cs2)n1	nt	nt	-10	nt	100	i	0.71
Cc1ccc2nc(NCc3ccco3)c(C=NCc3ccco3)c(=O)n2c1	nt	nt	0	-0.5	99	i	0.91
O=C(N/N=C/C(Br)=C/c1ccccc1)NC1CCCCC1	nt	nt	7	nt	100	i	0.93
Cc1cc(C)cc(OCC(=O)NCc2nc(-c3ccccc3)no2)c1	-6	99	-3	-2.4	97	i	1
Cc1nc(N2CCOCC2)nc2c1CCCC2	-43	165	0	-1.6	103	i	1.1
CC#CCCCC(=O)Nc1ccccc1C(=O)O	36	102	-12	0.2	74	i	0.92
Cc1ccc(CSc2nc3ccncc3[nH]2)cc1	nt	nt	-9	-1.2	96	i	0.85
O=C(CSc1nnc(-c2cccs2)n1Cc1ccco1)c1ccc2c(c1)OCO2	nt	nt	-3	-2.1	69	i	1
Cc1cc(C)c(C(=O)/C=C/c2ccco2)c(=O)[nH]1	nt	nt	-1	nt	96	i	1
CCOC(=O)C(=N/O)/C(C)=N/NC(=O)C(=O)Nc1ccc(Cl)cc1	nt	nt	nt	nt	98	i	0.96
Clc1ccc(Oc2nnnn2-c2ccccc2)cc1	-46	139	4	-0.7	97	i	0.81
CCOC(=O)C1(Cc2ccccc2)CCN(Cc2cnc(N3CCOCC3)s2)CC1	nt	nt	-1	nt	100	i	0.81
Cc1ccc2c(c1)N(C(C)C(=O)NCc1cccs1)C(=O)CO2 (configuration not stated)	nt	nt	4	nt	98	i	0.97

Random excerpt: four entries already listed.
SMILES	Insulin prom inh	Insulin prom inh cell count	PKD1 kinase inh	GALR2 ag	RGS16-Gao	HSV replic up	HSV replic up primary fold
CCCCOC(=O)C1C2C=C[C@]3(CN(CCCOC)C(=O)[C@H]13)O2 (some centres not stated)	-86	59	-9	-1.8	88	i	0.97
Cn1c(SCC(=O)N2CCCC2)nnc1-c1ccc(S(=O)(=O)N2CCCC2)cc1	31	99	1	-2.1	81	i	1
CC(C)Oc1ccc(/C=C/C(=O)NCC2COc3ccccc3O2)cc1 (configuration not stated)	nt	nt	nt	nt	100	i	1.1
CCOC(=O)c1cccc(-n2c(C)nc3ccccc3c2=O)c1	nt	nt	-9	-2.3	73	i	0.79

Already shown: 4 of the compounds above.
SMILES	Insulin prom inh	Insulin prom inh cell count	PKD1 kinase inh	GALR2 ag	RGS16-Gao	HSV replic up	HSV replic up primary fold
Cc1ccc(CSc2nc3ccncc3[nH]2)cc1	nt	nt	-9	-1.2	96	i	0.85
O=C(CSc1nnc(-c2cccs2)n1Cc1ccco1)c1ccc2c(c1)OCO2	nt	nt	-3	-2.1	69	i	1
Cc1cc(C)c(C(=O)/C=C/c2ccco2)c(=O)[nH]1	nt	nt	-1	nt	96	i	1
CCOC(=O)C(=N/O)/C(C)=N/NC(=O)C(=O)Nc1ccc(Cl)cc1	nt	nt	nt	nt	98	i	0.96
